Screens from PubChem.
Biofilm kill mix – clotrimazole potentiators killing C. albicans biofilm, primary screen, 4-compound mixtures; C. albicans biofilm persisters + clotrimazole, fluorescence viability; primary screen in compound mixtures of four per well; 120,000 tested, 0.02% active; inhibition, % at 7.6 µM;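 active means inhibition above 30.3% in the primary screen of four-compound pools, then above 30% when the compound was retested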;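 further: compounds exposed to preformed 24 h biofilms for 48 h; the number belongs to the whole pool; some results filed as inactive read as strong as hits; inactives centre near 12; 0% = biofilm with clotrimazole alone and 100% = kill control; retested singly at about 60 µM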
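Test system: C. albicans CAF4-2 wild-type biofilms; buffer or medium: RPMI/MOPS medium, pH 7.0; schedule: 24 h biofilm formation, then 48 h compound exposure, 37 °C; detection: Alamar Blue fluorescence; measure: percent inhibition of biofilm viability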
* hit, by the source's call; & = joins results of further samples. These rows are one share of the data. The share of hits here may be higher or lower than overall.

SMILES	Biofilm kill mix
O=C(NCc1nnc(SCC(=O)N2CCc3ccccc32)o1)c1ccco1	16
O=C(Nc1ccc(F)cc1)Oc1ccccc1N1CCOCC1	19
C/C(N)=C(/C#N)C(=O)COC(=O)c1cccc2ccccc12	5
O=S1(=O)CCN2C(c3cccc4ccccc34)=CSC2=N1	4
O=C(Cn1nnc(-c2cccs2)n1)NCCc1ccccc1	6
CCOc1cc(C2C(C#N)=C(N)OC(C)=C2C(C)=O)c(Br)c(Br)c1OC(C)C (configuration not stated)	15
O=C(NCc1ccco1)NC(=O)c1csc([N+](=O)[O-])c1	15
CCCCOC(=O)c1sc2nc(C)cc(C)c2c1N	2
Cc1nnc(SCc2c(Cl)cccc2Cl)n(N)c1=O	-2
O=C(Nc1ccc([N+](=O)[O-])cc1)Nc1ccc(N2CCOCC2)c2nonc12	-2
N/C(=N\OC(=O)c1ccc(Cl)cc1Cl)c1cccnc1	-7
O=C(Nc1nc(-c2ccccc2)cs1)c1ccccc1NS(=O)(=O)c1ccc(F)cc1	2
C/C(=N\Nc1ccc2nncn2n1)c1ccc(Br)s1	15
CC(=O)N(CCC1(c2ccc(C)cc2)CCOC(C(C)C)C1)Cc1ccco1 (configuration not stated)	12
CCc1ccc2[nH]c3nc(SCc4nnc(-c5ccccc5)o4)nnc3c2c1	15
CCC(C)NS(=O)(=O)c1ccc(F)c(C(=O)Nc2c(F)cc(F)cc2Br)c1 (configuration not stated)	-7
O=C(c1ccco1)N1CCn2cccc2C1c1ccccc1 (configuration not stated)	10
COc1ccc(-c2csc(NC(=O)c3ccoc3C)n2)cc1	14
CCOc1cccc(-c2nnc3sc(-c4cccs4)nn23)c1	10
CCCN(CCC)C(=O)/C=C/c1cccc([N+](=O)[O-])c1	18

4 entries from above, reformatted.
COc1ccc(-c2csc(NC(=O)c3ccoc3C)n2)cc1
  Biofilm kill mix: 14
C/C(N)=C(/C#N)C(=O)COC(=O)c1cccc2ccccc12
  Biofilm kill mix: 5
CC(=O)N(CCC1(c2ccc(C)cc2)CCOC(C(C)C)C1)Cc1ccco1 (configuration not stated)
  Biofilm kill mix: 12
O=C(NCc1nnc(SCC(=O)N2CCc3ccccc32)o1)c1ccco1
  Biofilm kill mix: 16

(more compounds)
SMILES	Biofilm kill mix
CCOC(=O)c1[nH]c2ccccc2c1NC(=S)Nc1ccccc1C	12
CCOC(=O)c1c(NC(=O)Cn2cnc3sc(C)c(-c4ccccc4)c3c2=O)sc(C)c1C	15
O=S(=O)(c1ccccc1)N1CN(Cc2ccc(F)cc2)c2nc3ccccc3nc21	1
Brc1ccc(-c2nnc3sc(CNC4CCCC4)cn23)cc1	14
Nc1cc(=O)[nH]c(SCC(=O)Nc2ccccc2-c2ccccc2)n1	3
CCCCNC(=O)c1cn(CC)c2cc(N3CCN(C)CC3)c(F)cc2c1=O	27
CC(OC(=O)c1ccc(NS(=O)(=O)c2cccs2)cc1)C(=O)N(C)C1CCCCC1 (configuration not stated)	11
COC(=O)c1sccc1NC(=O)CSc1ccccc1NC(=O)CNC(C)C	16
CCN(CC)C(=O)c1ccc2nc(-c3ccccc3)c(-c3ccccc3)nc2c1	11
COC(=O)c1sc(SC)c2c1CC(C)(C)C/C2=N/O	13
CCc1cccc(C)c1NC(=S)N1CCCC1C(=O)O (configuration not stated)	27
Cc1cc(C(=O)COC(=O)C2=NN(c3ccccc3)C(=O)CC2)c(C)n1CC(F)(F)F	14
C/C(=N/NS(=O)(=O)c1ccc(C)cc1)[C@H]1C[C@@H]1c1ccccc1	16
O=C(N/N=C/c1cccnc1)c1ccccc1[N+](=O)[O-]	16
COc1ccc(C(=O)CN2C(=O)NC3(CCCc4ccccc43)C2=O)cc1OC (configuration not stated)	10
COc1ccc(/C=C/C(=O)NCc2nc3ccccc3[nH]2)cc1OC	7
CN(C(=O)CO/N=C/c1ccc(OC(F)F)cc1)C1CCS(=O)(=O)C1 (configuration not stated)	17
Cc1cc(C)nc(CCNC(=O)c2cc(COc3ccc(F)cc3F)on2)n1	16
Cc1cc(N2CCOCC2)nc(N2CCOCC2)n1	19&12
CC(=O)NS(=O)(=O)c1ccc(N=NN2CCCCC2)cc1	16
CC(C(=O)NCc1ccco1)c1ccc([N+](=O)[O-])cc1 (configuration not stated)	9
CCCC(CCC)=NNC(=O)CN(Cc1ccccc1)S(=O)(=O)c1ccccc1	19
C=CCN(CC=C)CCOc1ccccc1[N+](=O)[O-]	13
O=C(CCCN1C(=O)/C(=C\c2cccs2)SC1=S)Nc1cccc(C(=O)O)c1	12
CC(C)(C)OC(=O)COc1cc(O)c2c(=O)cc(-c3ccccc3)oc2c1	3
S=C1NC2(CCCCC2)N=C1c1ccccc1	5
NC(=O)NNc1ncc(C(F)(F)F)cc1Cl	16
O=C(c1n[nH]c2ccccc12)N1CCN(c2ccc(F)cc2)CC1	1
COc1ccccc1NS(=O)(=O)c1ccc(/C=C/C(=O)O)cc1	7
CCCCCCC1CC(=O)NC(=O)N1 (configuration not stated)	16
COc1ccc(-c2ccc(OC)cc2)cc1	2
Cc1ccc(-c2nnn(CC(=O)N(c3ccccc3)C(C(=O)NC(C)(C)C)c3cccs3)n2)o1 (configuration not stated)	10
Cc1ccc(CN2CCN(Cc3ccccc3-c3ccco3)CC2CCO)o1 (configuration not stated)	28
Cc1ccc(C)c(N=C2CCCN2Cc2ccccc2)c1C#N	16
COc1cccc(-c2nnc(-c3ccc(C(F)(F)F)cc3)o2)c1	16
O=C1NC(=O)/C(=C\c2cn(Cc3ccccc3F)c3ccccc23)N1	13
Cc1cc(C(F)(F)F)cc(NNC(=O)NC(=O)c2ccc(Cl)cc2)n1	32
Cc1c(Cl)c(C(=O)NC2C3CC4CC(C3)CC2C4)nn1C (configuration not stated)	4
CCOC(=O)/C(C#N)=C(C)/C=C1\Sc2ccccc2N1CC	16
CNC(=O)COC(=O)CCC(=O)c1cccs1	14
COc1ccc(CNC(=O)C(OC(=O)c2ccco2)c2ccc(OC)cc2)cc1 (configuration not stated)	15
CCOC(=O)N1CCN(S(=O)(=O)c2cc([N+](=O)[O-])ccc2C)CC1	5
COc1ccc2c(c1)C(NC(C)=O)C(=O)N2CCc1ccccc1 (configuration not stated)	12
COC(=O)c1c(NC(=S)Nc2ccc(CC(=O)O)cc2)sc(C)c1C	13
C1CN(c2nc3nonc3nc2N2CCSCC2)CCO1	29
Cc1cc(C(F)(F)F)c(C#N)c(=O)[nH]1	9
COCC(=O)Nc1ccc(S(=O)(=O)Nc2ccccn2)cc1	13
CCOCCCNC(=O)CSc1nc2nc(C)c(Cc3ccccc3)c(C)n2n1	9
Cc1oc(/N=C/c2ccc(O)cc2O)c(C#N)c1C	11
COc1ccc(CC(NC(C)=O)C(=O)NC2CCN(C(=O)C3CC3)CC2)cc1OC (configuration not stated)	11
COc1ccc(N/C=C\C(=O)c2ccc3c(c2)OCO3)cc1OC	7
O=C(O)C1CCCCC1C(=O)NCc1ccc2c(c1)OCO2 (configuration not stated)	26
Clc1cccc(Cl)c1CNc1ccc(N2CCCC2)cc1	7
COc1ccc(/C=N/N=C2/NC(=O)C(CC(=O)O)S2)cc1OCc1ccc(Cl)cc1Cl (configuration not stated)	11
CC(C)NC(=O)NNC(=O)c1cc(COc2cc(Cl)cc(Cl)c2)on1	21
O=[N+]([O-])c1ccc(N2CCNCC2)cc1NCc1cccnc1	8
Cc1c(NC(=O)COC(=O)c2cc(-c3cccc4ccccc34)nc3ccccc23)c(=O)n(-c2ccccc2)n1C	11
Cc1ccc(C)n1-c1ccc(N2CCOCC2)c([N+](=O)[O-])c1	2
CCN(CC)c1ccc(NC(=O)COc2ccccc2C)cc1S(=O)(=O)Nc1ccccc1OC	11
Cc1ccc(-c2nn(-c3ccccc3)cc2/C=N/n2c(-c3ccncc3)n[nH]c2=S)cc1	12

New compounds follow
SMILES	Biofilm kill mix
COC(=O)c1nc2nc(-c3cccs3)cc(C(F)(F)F)n2n1	1
CCN(CC)C(=O)C(=O)Nc1ccc(Oc2ccccc2)cc1	15
O=C(CCC1CCCN(C(=O)c2ccc3c(c2)OCO3)C1)N1CCN(c2ccccn2)CC1 (configuration not stated)	18
Cc1c(NC(=S)N/N=C/C=C/c2ccccc2)c(=O)n(-c2ccccc2)n1C	14
COCCOC(=O)C1=C(C)NC2(O)c3ccccc3C(=O)C12O (configuration not stated)	3
O=C(COC(=O)C1CC1)NC(=O)NCc1ccccc1	13
COc1ccc(N=Cc2cc(Cc3ccccc3Cl)cc([N+](=O)[O-])c2O)cc1OC	17
CCOC(=O)N/N=C/c1ccc(Oc2ccccc2)cc1	9
C/C(=N\OCC(=O)NC(C)C)c1cccs1	-1
COC(=O)N1CCN(c2ccc(C)cc2)C(C)C1 (configuration not stated)	14
COCCCNC(=O)/C(C#N)=C/c1cc(C)[nH]c1C	23
CC(/C=N/n1c(-c2cc(C)[nH]n2)n[nH]c1=S)=C\c1ccccc1	14
Cc1cc(C)n(CCNC(=O)CCc2nnc(CCc3ccccc3)o2)n1	0
O=C(CCCN1C(=O)/C(=C\c2cccs2)SC1=S)NNC(=O)c1cccnc1	-1
C#Cc1ccc([C@H]2C=C(C(=O)N3CCN(Cc4ccccc4)CC3)O[C@@H](OCc3ccc(CO)cc3)C2)cc1	13
CC(C)CNC(=O)NC(=O)COC(=O)c1ccccc1Sc1ccc(C(F)(F)F)cc1[N+](=O)[O-]	19
COc1ccccc1CC(=O)Nc1cccc(C(=O)NN2C(=O)c3ccccc3C2=O)c1	16
Cc1ccc(-c2cc(=O)c3cc(Cl)ccc3[nH]2)cc1	16
O=C(Nc1nc(-c2ccc3ccccc3c2)cs1)c1ccc(N2C(=O)CCC2=O)cc1	13
CN1CCN(C(=O)/C=C\c2ccc(Cl)cc2)CC1	3

Reprinted from the part before: 2 entries, followed by the next part.
SMILES	Biofilm kill mix
O=C(Nc1nc(-c2ccc3ccccc3c2)cs1)c1ccc(N2C(=O)CCC2=O)cc1	13
CN1CCN(C(=O)/C=C\c2ccc(Cl)cc2)CC1	3
COc1ccccc1OCCCN1C(=O)C(=O)c2cccc(C)c21	19
O=C(CSc1ncnc2nc[nH]c12)Nc1ccc(Br)cc1Cl	-1
Cc1ccc(C)c(CSC2=NCCN2C(=O)c2cccs2)c1	15
Cc1cc(NC(=O)CCC(=O)N(Cc2ccccc2)C2(C(=O)NC3CCCCC3)CCCC2)no1	12
CCC(=C(c1ccc(OC)cc1)c1ccc(OC)cc1)c1cn(CC(O)CN(CCO)CCO)c2ccccc12 (configuration not stated)	17
Cc1ccc(C(=O)Nc2cccc(C(F)(F)F)c2)cc1Nc1cnccn1	15
Fc1ccc(CSc2ccc(-c3ccco3)nn2)cc1	9

Three structures from above, arranged by molecular weight, rising:
SMILES	Biofilm kill mix
Cc1ccc(C)c(CSC2=NCCN2C(=O)c2cccs2)c1	15
O=C(CSc1ncnc2nc[nH]c12)Nc1ccc(Br)cc1Cl	-1
Cc1cc(NC(=O)CCC(=O)N(Cc2ccccc2)C2(C(=O)NC3CCCCC3)CCCC2)no1	12
